From PubChem
Tgondii IFNg – T. gondii growth inhibition with IFN-gamma, primary screen, cell-based | activity change, negative = inhibition, %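 (about 20 µM by stock and volumes)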 | Toxoplasma gondii growth in IFN-gamma-treated host cells; active compounds read low; reference of the scale not given here | hit rate 3.8% among 69,000;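 active = below -70%; inconclusive = fit judged invalid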;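 also: host cells are HeLa cells infected with Toxoplasma gondii; parasite growth read as luciferase light; one replicate is shown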
* hit, by the source's call; & = joins results of further samples.

`O=C1N(CC2CC2)C(c2ccccc2)C12CCNCC2` (stereo not given) gave Tgondii IFNg -5.
For Cc1cc(C)n(Cc2nc(-c3ccc(NC(=O)C(C)(C)C)cc3)oc2C)n1 the results were Tgondii IFNg 77.
For CCn1ncc2c1C(COC)N(C(=O)/C=C/c1cccs1)CC2 (stereo not given) the results were Tgondii IFNg -41.
For COc1ccc(CNC(=O)CN2C(=O)CCc3cc(S(=O)(=O)N4CCC(C)CC4)ccc32)cc1 the results were Tgondii IFNg -34.
For Cc1cncc(C(=O)N2CCn3cc(CN4CCCC4)nc3C2)c1 the results were Tgondii IFNg -3.
Cc1ccc2nc(CNC(=O)Cc3ccc4c(c3)OCO4)[nH]c2c1 was read as Tgondii IFNg 4.
Screening O=C(CC1CCN(Cc2ccccn2)CC1)Nc1ccc(OC2CCCC2)cc1 returned Tgondii IFNg -70.
O=C(O)c1nccnc1-c1nc2ccccc2c(=O)[nH]1 was read as Tgondii IFNg -35.
Screening CC(C)n1c2ccccc2c2c1cc(C(=O)N1CCC(N(C)C)CC1)n2-c1ncccn1 returned Tgondii IFNg -23.
Screening Cc1noc(C[C@@H]2COC[C@@H]3CN(S(C)(=O)=O)C[C@@H]32)n1 returned Tgondii IFNg 49.
CC(C)(Cc1ccc(F)cc1)NC(=O)c1cn2c(n1)CNCC2 was read as Tgondii IFNg 5.
For COc1cccc(-c2nn(CC3CC3)c3c2[C@@H]2CN(C(=O)c4ccccc4)C[C@@H]2C3)c1 the results were Tgondii IFNg -20.
Screening Cc1noc(C)c1S(=O)(=O)N(C)C[C@@H]1OCc2cn(nn2)CCCC(=O)N([C@H](C)CO)C[C@@H]1C returned Tgondii IFNg -70.
`CSc1cccc(NC(=O)N2CCC(c3nc(C(=O)N4CCCCC4)c(C)o3)CC2)c1` gave Tgondii IFNg -65.
For Cc1c(C(=O)NC2CCC(n3cnnc3)CC2)cnn1-c1ccccn1 (stereo not given) the results were Tgondii IFNg -9.
Screening CCOc1ccccc1CNS(=O)(=O)c1ccc2[nH]c(=O)ccc2c1 returned Tgondii IFNg inactive.
`CCOc1ccccc1CN1C(=O)C2CC(=O)OC23C(CC(C)=O)N(Cc2ccccc2)C(=O)C13` (stereo not given) gave Tgondii IFNg 77.
CNC(=O)c1ccc(-c2cc(C)nc(C3CCCN3Cc3cnc(C)s3)c2)cn1 (stereo not given) was read as Tgondii IFNg -1.
COc1ccccc1-c1nc(C)c(-c2ccc(SCc3c(F)cccc3Cl)nn2)s1 was read as Tgondii IFNg 3.
`COCCN1CC2(CCOCC2)c2cc(NC(=O)C3CCC3)ccc21` gave Tgondii IFNg -49.
For CC(=O)N(C)Cc1nc2ccccc2n1CCCCOc1ccccc1Cl the results were Tgondii IFNg -40.
For COc1ccc(C(=O)N2C[C@H]3[C@@H](c4ccccc42)[C@@H](CO)N3C(=O)NC(C)C)cc1 the results were Tgondii IFNg -17.
For CCOc1ccc(S(=O)(=O)N2CCc3nc(-c4ccc(OC)cc4)sc3C2)cc1 the results were Tgondii IFNg 42.
`Cc1nnc(N2C[C@H]3CCCO[C@H]3[C@H](N3CCCC3=O)C2)s1` gave Tgondii IFNg -1.
COc1cc(-c2cccc(-n3cccn3)c2)ccc1NC(C)=O was read as Tgondii IFNg 77.
C1=CCC(CNCCN2CCOCC2)CC1 (stereo not given) was read as Tgondii IFNg 17.
CC(C)NC(=O)N[C@@H]1CC[C@H](CC(=O)NCCCN(C)C)O[C@H]1CO was read as Tgondii IFNg -8.
CCS(=O)(=O)Nc1ccc2c(c1)C(=O)N(C)C[C@@H](OC)[C@H](C)CN(C(=O)c1ccc3c(c1)OCO3)[C@H](C)CO2 was read as Tgondii IFNg 243.
Screening CCOc1ccc(NC(=O)C2=C(C)C(=O)OC23CCN(S(=O)(=O)CC)CC3)cc1 returned Tgondii IFNg 64.
`CN(C)CC(=O)N1Cc2nnn(C)c2C(COCc2ccccn2)C1` (stereo not given) gave Tgondii IFNg 3.

By substructure, the compounds so far containing an aryl methoxy group (6)
For COc1ccc(CNC(=O)CN2C(=O)CCc3cc(S(=O)(=O)N4CCC(C)CC4)ccc32)cc1 the results were Tgondii IFNg -34.
For COc1cccc(-c2nn(CC3CC3)c3c2[C@@H]2CN(C(=O)c4ccccc4)C[C@@H]2C3)c1 the results were Tgondii IFNg -20.
COc1ccccc1-c1nc(C)c(-c2ccc(SCc3c(F)cccc3Cl)nn2)s1 was read as Tgondii IFNg 3.
For COc1ccc(C(=O)N2C[C@H]3[C@@H](c4ccccc42)[C@@H](CO)N3C(=O)NC(C)C)cc1 the results were Tgondii IFNg -17.
For CCOc1ccc(S(=O)(=O)N2CCc3nc(-c4ccc(OC)cc4)sc3C2)cc1 the results were Tgondii IFNg 42.
COc1cc(-c2cccc(-n3cccn3)c2)ccc1NC(C)=O was read as Tgondii IFNg 77.

The list continues:
Screening O=C(O)C1CN(c2ncc(F)c(N3CCCC3)n2)CCN1 (stereo not given) returned Tgondii IFNg 0.
For CCOC(=O)[C@@]12CCCN(S(=O)(=O)C3CC3)C[C@@H]1CN(C(C)=O)C2 the results were Tgondii IFNg 77.
COc1ccc2[nH]c(C)c(C(=O)NCc3cc(Cl)c4c(c3)OCCCO4)c2c1 was read as Tgondii IFNg -85*.
`COC(=O)c1cc2c([nH]c3ccccc32)c(C(F)(F)F)n1` gave Tgondii IFNg 67.
O=C(c1cccs1)N1CCC2OCCN(c3cccnc3)C2CC1 (stereo not given) was read as Tgondii IFNg 2.
CC(C)CN1CC(C(=O)NCc2nc(-c3ccccc3)n[nH]2)CC1=O (stereo not given) was read as Tgondii IFNg -45.
For CN(C)C(=O)[C@]12CCCN(Cc3ccccn3)C[C@@H]1CN(c1ccccn1)C2 the results were Tgondii IFNg 7.
For O=C1NCC(CN2CCOc3c(O)cc(-c4csc5ccccc45)cc3C2)O1 (stereo not given) the results were Tgondii IFNg -76*.
For COc1ccc(-c2nc(C)c(CCNS(=O)(=O)c3ccc(C)cc3)s2)cc1OC the results were Tgondii IFNg inactive.
Screening CC1N=C2c3ccccc3N=C(SCc3ccc(F)cc3)N2C1=O (stereo not given) returned Tgondii IFNg -10.
For COCCN1CCCn2c(nc(CNc3ccccn3)cc2=O)C1 the results were Tgondii IFNg -2.
Nc1cccc2nc3ccccc3cc12 was read as Tgondii IFNg -99*.
For NCC[C@@H]1CC[C@@H](NC(=O)NC2CCCCC2)[C@@H](CO)O1 the results were Tgondii IFNg 10.
O=C(c1ccccc1)N1CCC(NCc2cnn(-c3cccc(F)c3)c2)CC1 was read as Tgondii IFNg -8.
Screening Cc1cc(C)n(CC(C)NCc2cccc(-n3cccn3)c2)n1 (stereo not given) returned Tgondii IFNg 7.
Screening COc1ccccc1-c1ccc([C@H]2[C@@H](CO)N(C(C)=O)[C@H]2CN(C)C(C)=O)cc1 returned Tgondii IFNg 9.
`Cc1ccccc1-n1cc(Cn2ccnc2-c2ccccc2C(=O)O)cn1` gave Tgondii IFNg 65.
O=C([C@H]1C[C@@H]2OCC[C@@H]2N(Cc2cccs2)C1)N1CCCO1 was read as Tgondii IFNg -13.
Cc1cc(C)c2[nH]c(=O)c(CN3CCOC(CN)C3)cc2c1 (stereo not given) was read as Tgondii IFNg -42.
Screening Cc1csc2ncnc(N3CCN(S(=O)(=O)c4cccc(C(F)(F)F)c4)CC3)c12 returned Tgondii IFNg inconclusive.
`Cc1csc2c(N3CCC(n4nccc4NC(=O)C4CC4)CC3)ncnc12` gave Tgondii IFNg -4.
CCN1C(=O)CCCC12CCCN(c1cc(OC)ncn1)C2 (stereo not given) was read as Tgondii IFNg 47.
Screening O=C1C(Cc2ccccc2)N=C2c3ccccc3N=C(SCc3ccccc3Cl)N12 (stereo not given) returned Tgondii IFNg -64.
`CN1c2ccc(-c3cccc(C#N)c3)cc2[C@@H]2[C@@H](CCN2C(=O)CN2CCOCC2)[C@H]1CO` gave Tgondii IFNg 63.
For COC(=O)[C@@H]1CN(C(=O)C2CCN(S(C)(=O)=O)CC2)C[C@H]1c1ccc(OC)cc1 the results were Tgondii IFNg 2.
CNC(=O)N1CCC2(CC1)CCn1c(-c3cnn(C)c3)cnc12 was read as Tgondii IFNg -2.
CC(=O)OCC#CCSc1nc2ccccc2n1C was read as Tgondii IFNg -12.
`COc1ccc2c3c(n(C)c2c1)[C@@H](CO)N(C(=O)C1CC1)CC31CCN(C(=O)CN(C)C)CC1` gave Tgondii IFNg 15.
`C[C@@H]1CCCCO[C@@H](CN(C)C(=O)NC2CCCCC2)[C@@H](C)CN([C@@H](C)CO)C(=O)c2cc(N(C)C)ccc2O1` gave Tgondii IFNg 327.
Screening CC1CCCCN1S(=O)(=O)c1ccc2c(c1)CCC(=O)N2CC(=O)NCc1ccc2c(c1)OCO2 (stereo not given) returned Tgondii IFNg -24.

Structural class, the entries above with a Cl atom (4)
COc1ccccc1-c1nc(C)c(-c2ccc(SCc3c(F)cccc3Cl)nn2)s1 was read as Tgondii IFNg 3.
For CC(=O)N(C)Cc1nc2ccccc2n1CCCCOc1ccccc1Cl the results were Tgondii IFNg -40.
COc1ccc2[nH]c(C)c(C(=O)NCc3cc(Cl)c4c(c3)OCCCO4)c2c1 was read as Tgondii IFNg -85*.
Screening O=C1C(Cc2ccccc2)N=C2c3ccccc3N=C(SCc3ccccc3Cl)N12 (stereo not given) returned Tgondii IFNg -64.

Next results
`CCOc1ccccc1NC(=O)Cn1ncc2c(N3CCCC3)ncnc21` gave Tgondii IFNg 109.
`CS(=O)(=O)N1C[C@@H]2[C@H](C1)c1ccccc1[C@@H]2N1CCOCC1` gave Tgondii IFNg -4.
`CCS(=O)(=O)N1CCC2(CC1)OC(=O)C(C)=C2C(=O)Nc1ccccc1F` gave Tgondii IFNg 37.
For N#Cc1cccc(CN2CCC3(CC2)N=C(C2CC2)NO3)c1 the results were Tgondii IFNg 105.
For Cc1ccc(C(=O)Nc2ccc(N3CCC(C(N)=O)(N4CCCCC4)CC3)c(C(=O)O)c2)cc1 the results were Tgondii IFNg 0.
Screening C[C@H]1CN([C@@H](C)CO)C(=O)CCCn2cc(nn2)CO[C@@H]1CN(C)C(=O)Nc1cccc2ccccc12 returned Tgondii IFNg inactive.
Screening O=C(Nc1ccccc1Cl)c1ccc2nnc(C3CCN(Cc4ccccc4)C3)n2c1 (stereo not given) returned Tgondii IFNg 24.
COCC(=O)N1CCCn2nnc(Cn3cccc3)c2C1 was read as Tgondii IFNg 9.
`O=C(NCCC1=CCCCC1)C1CC12CCN(Cc1ccc3ccccc3c1)CC2` (stereo not given) gave Tgondii IFNg -25.
`CC(=O)N1CC2(CCN(C(=O)CC3CCCC3)CC2)CC1C(=O)O` (stereo not given) gave Tgondii IFNg -14.
Screening CC(=O)N1CCOCC2(CCCN(c3ncc(C)cn3)C2)C1 (stereo not given) returned Tgondii IFNg 1.
For Cc1cccc(S(=O)(=O)N2C[C@@H]3N[C@H](C2)C3c2ccc(-c3cncnc3)cc2)c1 (stereo not given in full) the results were Tgondii IFNg 1&-1.
`Nc1ccc(-c2ccc(C(=O)N3CCC(CN4CCCC4=O)CC3)cn2)cn1` gave Tgondii IFNg 87.
Screening CO[C@@H]1CN(C)C(=O)c2cc(NC(=O)Cc3ccccc3)ccc2OC[C@@H](C)N(C(=O)c2ccccc2F)C[C@@H]1C returned Tgondii IFNg 22.
`CCN1C[C@H]2[C@H](OC)CCN(S(=O)(=O)c3cn(C)cn3)[C@H]2C1` gave Tgondii IFNg 3.

Among those listed so far, 6 contain a thiophene ring, fused or not:
For CCn1ncc2c1C(COC)N(C(=O)/C=C/c1cccs1)CC2 (stereo not given) the results were Tgondii IFNg -41.
O=C(c1cccs1)N1CCC2OCCN(c3cccnc3)C2CC1 (stereo not given) was read as Tgondii IFNg 2.
For O=C1NCC(CN2CCOc3c(O)cc(-c4csc5ccccc45)cc3C2)O1 (stereo not given) the results were Tgondii IFNg -76*.
O=C([C@H]1C[C@@H]2OCC[C@@H]2N(Cc2cccs2)C1)N1CCCO1 was read as Tgondii IFNg -13.
Screening Cc1csc2ncnc(N3CCN(S(=O)(=O)c4cccc(C(F)(F)F)c4)CC3)c12 returned Tgondii IFNg inconclusive.
`Cc1csc2c(N3CCC(n4nccc4NC(=O)C4CC4)CC3)ncnc12` gave Tgondii IFNg -4.

Remaining list, next part.
Cc1nc(SCC(=O)N2CCN(c3ncc4c(n3)CCOC4)CC2)oc1C was read as Tgondii IFNg -27.
Cc1cc(C(=O)N2CCCC(COc3ccc(F)cc3)C2)c2cnn(C(C)C)c2n1 (stereo not given) was read as Tgondii IFNg 2.
For CCCN(Cc1nccn1C)C(=O)C12CNCC1CNC2 (stereo not given) the results were Tgondii IFNg -8.
`Cc1ccc(-c2nc(Cn3nnc(-c4nc(-c5cccs5)no4)c3C)c(C)o2)cc1` gave Tgondii IFNg -52.
`CCC(Oc1ccc2c(c1)CCCC2)C(=O)NCCc1cn[nH]c1` (stereo not given) gave Tgondii IFNg 14.
CN(C)C(=O)c1ccc(-c2ccc(C3[C@@H]4CN(Cc5ccccc5Cl)C[C@H]3N4)cc2)cc1 (stereo not given in full) was read as Tgondii IFNg -42.
COc1ccc2c3c(n(C)c2c1)[C@H](CO)NCC31CN(Cc2ccccc2Cl)C1 was read as Tgondii IFNg -51.
Screening COc1ccc(/C=C/C(=O)c2cc3cccc(OC)c3oc2=O)cc1 returned Tgondii IFNg 28.
Screening CCCn1cnnc1CNC1CCCC1 returned Tgondii IFNg -5.
For Cc1nc(-c2ccccc2)sc1CCNS(=O)(=O)c1ccc(Oc2ccccc2)cc1 the results were Tgondii IFNg -33.
CCCCNC(=O)c1nc(Nc2ccc(C)cc2)c2ccccc2n1 was read as Tgondii IFNg -69.
`CCc1nc(OCC(=O)Nc2ccccc2Cl)c2ccccc2n1` gave Tgondii IFNg -47.
For COCC(NC(=O)c1ccccc1N1CCOCC1)c1ccnn1C (stereo not given) the results were Tgondii IFNg 3.
For Cc1cccc(-c2nc(CCNC(=O)c3cccc(Br)c3)cs2)c1 the results were Tgondii IFNg 417.
`Cn1nccc1-c1ccc2nc(C3CCN(CCO)CC3)nn2c1` gave Tgondii IFNg 102.
`CO[C@H]1CN(C(=O)c2ccc3c(c2)OCO3)[C@H]2COC[C@@H]12` gave Tgondii IFNg 4.
Screening CC(CN1CCc2ccccc2C1)NC(=O)c1cccc2ccnn12 (stereo not given) returned Tgondii IFNg -45.
For CCc1nnc(-c2coc(S(=O)(=O)N3CCC(N4CCCCC4)CC3)c2)o1 the results were Tgondii IFNg 13.

An excerpt; count on the stated rates, not on these rows.
